Screening data deposited in PubChem by several laboratories.
BJeLR lethal – kills HRASV12-expressing BJeLR cells; AID 1554; BJeLR (HRASV12) viability, CellTiter-Glo ATP luminescence, 48 h; reference of the scale not given here; inhibition, % (concentration not given with the values); 0.17% of 300,000 active;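 active = replicate mean above 50%; inconclusive = above 50% but judged a plate artefact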;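 also: 50 nL library stock added to about 25 µL; numbers are from one replicate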
RN4220 kill – S. aureus RN4220 growth inhibition; OD600, 16 h; inhibition, % (test concentration not listed); 0.33% of 330,000 active; AID 1259311;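 active = z-score of -3 or lower and OD600 up to 0.18 on both plates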;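 also: plate controls were untreated cells for no effect and reference antibiotic for full effect; stock transfer was 100 nL into about 80 µL; one replicate is shown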
Sa ugtP lethal – kills S. aureus RN4220 lacking UgtP; 0.54% of 330,000 active; S. aureus RN4220 ugtP deletion, OD600 growth, 16 h; some inactives read as strong as hits; growth inhibition, % (test concentration not listed);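 active = z-score under -3 and OD600 up to 0.15 on both plates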;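 also: plate controls were untreated wells for no effect and antibiotic for full effect; wells of about 80 µL received 100 nL stock; the first replicate is given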
Mtb hypoxia rep – inhibitors of hypoxia-regulated fluorescent reporter in Mycobacterium tuberculosis | M. tuberculosis hypoxia-regulated fluorescent reporter, fluorescence | AID 1159583 | 0.1% of 300,000 active | fluorescence inhibition, % (no concentration beside the values);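 active = 35 to 45% if threefold the growth effect, above 45% if 1.5-fold the growth effect; inactive = the rest, general growth blockers included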;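 also: wells of about 50 µL received 100 nL stock; 0% = vehicle wells and 100% = reference inhibitor wells; whole bacteria with a GFP reporter of the hypoxia response; strong numbers were not always called active; many hits fall short of the cut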
Autofluor counter – flagged as autofluorescent in microsphere protease counterscreen; compound autofluorescence counterscreen, microsphere flow cytometry; hits give high values; fluorescence intensity (no concentration beside the values); 3.1% of 360,000 active; AID 624483;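 active = at least 3 SD above the mean of all compounds, about 16000 in these data; inconclusive = too few beads counted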;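 also: 100 nL of 1 mM stock went into each well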
PrP UTR inh – inhibition of PrP 5' UTR reporter expression | cell-based PrP 5' UTR mRNA reporter, plate reader | inhibition, % (test concentration not listed) | 0.35% of 340,000 active | AID 488862;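 active = every replicate at 50% or more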;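 also: 0 = median of the neutral control wells; tested in H4 reporter cells; numbers are from one replicate; inactives centre near -14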
Mtb hypoxia rep growth – further read-out of Mtb hypoxia rep, marked with its call; growth inhibition, %; measured here: M. tuberculosis growth (absorbance);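 0% = vehicle and 100% = reference antibiotic; read after six days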
Starred values were filed as active, the others as inactive; ? = inconclusive; nt = not tested or not shown.

The opening three entries, to show the layout:
SMILES,BJeLR lethal,RN4220 kill,Sa ugtP lethal,Mtb hypoxia rep,Mtb hypoxia rep growth,Autofluor counter,PrP UTR inh
COC(=O)c1cn(C(C)C(=O)NCc2ccco2)c2ccccc12 (stereo not drawn),-9,7.2,3,5,6,10042,-5
O=C(Nc1ccc(Cc2ccncc2)cc1)C1CCC(N2C(=O)C3C4C=CC(C5CC45)C3C2=O)CC1 (stereo not drawn),4,3.8,13,4,15,6043,3
Cc1cc(C)c(NC(=O)CNC(=O)c2ccc3c(=O)n4c(nc3c2)CCC4)c(C)c1,nt,-0.6,3,4,9,5901,-28

This part in full, from the start:
SMILES,BJeLR lethal,RN4220 kill,Sa ugtP lethal,Mtb hypoxia rep,Mtb hypoxia rep growth,Autofluor counter,PrP UTR inh
COC(=O)c1cn(C(C)C(=O)NCc2ccco2)c2ccccc12 (stereo not drawn),-9,7.2,3,5,6,10042,-5
O=C(Nc1ccc(Cc2ccncc2)cc1)C1CCC(N2C(=O)C3C4C=CC(C5CC45)C3C2=O)CC1 (stereo not drawn),4,3.8,13,4,15,6043,3
Cc1cc(C)c(NC(=O)CNC(=O)c2ccc3c(=O)n4c(nc3c2)CCC4)c(C)c1,nt,-0.6,3,4,9,5901,-28
CC(C)(C)OC(=O)N1CCC[C@H]1c1nnc(SCc2cccc(Cl)c2)o1,-7,8.9,4,14,0,3999,-11
CC1CCCCC1NC(=O)COC(=O)c1cc(=O)c2ccccc2o1 (stereo not drawn),-3,1.7,3,-7,-2,4594,-30
O=C(/C=C/c1ccco1)Oc1ccc(C(=S)N2CCOCC2)cc1,2,17,0,0,1,4255,-32
Cn1nc(-c2ccccc2)c(N2CCCCC2)cc1=O,1,4.0,6,10,10,4848,-32
O=C(Nc1nnc(C(F)(F)F)s1)C1COc2ccccc2O1 (stereo not drawn),4,91,88*,nt,nt,3193,-25
O=C(CN(Cc1ccccc1)S(=O)(=O)c1ccc(F)cc1)NCc1ccccn1,-11,0.3,1,13,6,3119,-18
CCCCN(C(=O)C1CSC2(C)CCC(=O)N12)c1c(N)n(CC(C)C)c(=O)[nH]c1=O (stereo not drawn),nt,8.0,3,10,6,3332,-3
O=c1cc(-c2ccccc2)nc(SCc2ccccc2)[nH]1,5,2.0,-14,nt,nt,2622,-10
C/C(=N\NC(=O)c1nnn(-c2nonc2N)c1-c1cccs1)c1ccncc1,7,nt,nt,nt,nt,4241,-19
CSc1c(SCc2ccccc2)cnn(Cc2ccccc2)c1=O,8,1.8,-16,5,7,9140,-57
CCOc1[nH]n(-c2ccccc2)c(=O)c1C=Nc1ccccc1,-3,8.0,-19,7,-4,5577,-24
Cc1ccc(S(=O)(=O)NN=Cc2cn(CC(N)=O)c3ccccc23)cc1C,nt,-0.7,47,6,1,nt,nt
Cc1cc(N/C=C\c2nnnn2-c2ccc(F)cc2)no1,0,6.3,6,-1,5,2487,-12
Cc1ccc(CCN2CCN=C2Nc2ccccc2)cc1,nt,13,16,9,6,2885,-13
c1ccc(Cn2nnnc2C(c2cccnc2)N2CCN(c3ccccc3)CC2)cc1 (stereo not drawn),-12,1.9,4,0,-1,11179,-13
CN(C)Cc1c(-c2ccc(Cl)cc2)nc2ccccn12,3,1.4,6,-2,8,5672,-52
O=C1[C@H]2[C@@H](c3ccc(F)cc3)N3C(=O)N(c4ccc(Br)cc4)C(=O)[C@@]3(Cc3ccc(Cl)cc3)[C@H]2C(=O)N1C1CCCCC1,-8,nt,nt,nt,nt,3536,-9
Cc1ccc(C(=O)C2=C(O)C(=O)N(CC3CCCO3)C2c2ccccc2F)o1 (stereo not drawn),0,8.4,4,-2,7,3318,-18
Clc1ccccc1-c1nc(N/N=C/c2cccnc2)c2ccccc2n1,-4,nt,nt,nt,nt,4400,18
COc1ccc(N2CCN(C(=O)CCCCCn3c(=O)[nH]c4ccsc4c3=O)CC2)cc1,-1,5.5,19,10,-1,4452,-17
O=C1CCN(Cc2ccccc2)C=C1c1ccc(C(F)(F)F)cc1,nt,1.5,3,1,4,4359,-16
O=C(CN1CCCC1)OCCCc1ccccc1,-14,2.7,5,0,3,2352,-29
CCN(CC)C(=O)CN(c1ccc(Cl)cc1)S(=O)(=O)c1ccccc1,4,2.6,-2,-4,5,4335,-3
CCOc1ccc(OCC)c(NC(=O)c2ccc(CNc3c(N4CCCC4)c(=O)c3=O)cc2)c1,3,3.0,6,1,9,5397,9
O=C(O)c1cc(N2CCOCC2)nc2ccccc12,0,1.9,2,12,-2,4310,-19
c1ccc(OCc2nn3c(-c4n[nH]c5c4CCC5)nnc3s2)cc1,-4,-0.1,1,nt,nt,2268,-2
CC(=O)c1ccc(N(C(=O)c2csnn2)C(C(=O)NC(C)(C)C)c2cccs2)cc1 (stereo not drawn),-7,0.3,9,19,5,4291,-9
C1=C(c2c[nH]c3ccccc23)CCN(Cc2ccccc2)C1,2,-2.1,5,7,12,4694,-21
COc1cc(C(=O)OCC2CC(c3ccccc3)=NO2)cc(OC)c1OC (stereo not drawn),-7,3.3,14,4,-11,5161,-24
COc1ccc(-n2c(C)c([N+](=O)[O-])c3ccc(O)c(CN4CCCCC4)c32)cc1,-3,-0.9,-7,-74,-10,4769,19
Cc1cc(C)c2nc(C(F)(F)F)nc(NCCCN3CCOCC3)c2c1,-3,-5.2,0,15,9,4201,-9
COC(=O)[C@@H](NCc1cccc(CN([C@H](C(=O)OC)C(C)C)S(C)(=O)=O)c1)C(C)C,0,nt,nt,nt,nt,2818,-1
CC(=O)c1c(C)[nH]c(C(=O)N2CCCCCC2)c1C,9,5.0,-2,2,-1,3618,-16
O=C(c1ccc2c(c1)OCCCO2)c1cccs1,1,5.3,-3,8,19,22559*,-55
CN(c1ccc(F)cc1)S(=O)(=O)c1ccc(Cl)c(C(=O)NCC2CCCO2)c1 (stereo not drawn),nt,6.0,1,-3,-2,?,-21
O=C(COc1ccccc1[N+](=O)[O-])N/N=C/c1ccc(O)cc1,8,nt,nt,nt,nt,7666,0
COc1ccccc1-n1nnnc1SCC(=O)N(CC(C)C)C1CCS(=O)(=O)C1 (stereo not drawn),2,1.2,3,0,-4,5696,-13
NC(=O)CSc1nnc(-c2cccs2)n1Cc1ccco1,1,6.2,0,6,7,3236,-3
Cc1ccc(/S(C)=N/S(=O)(=O)c2ccc(C)cc2)cc1 (stereo not drawn),-2,3.0,2,nt,nt,4919,-12
O=C(NCc1ccco1)Nc1ccc2snnc2c1,-3,-17,-6,6,7,2482,-13
COC(=O)C1=C(C)N(CCc2ccc(OC)cc2)C(=O)C1,-10,8.0,11,nt,nt,2063,-20
O=C(NC(=S)N1CCN(Cc2ccc3c(c2)OCO3)CC1)c1cccc(Br)c1,-11,-3.2,-7,-2,-4,9236,-21
N/C(=N\OC(=O)c1cc([N+](=O)[O-])ccc1Cl)c1cccnc1,6,nt,nt,nt,nt,3590,-24
CC(C)CCNC(=O)c1cnn2c(C(F)(F)F)cc(-c3ccco3)nc12,-13,2.7,14,-3,5,19781*,5
CC(=O)c1cccc(OCC(O)CN2CC=C(c3ccccc3)CC2)c1 (stereo not drawn),3,3.3,8,5,10,19622*,-15
CC(/C=C/c1ccco1)=N\NC(=O)C(O)c1ccccc1 (stereo not drawn),-5,nt,nt,nt,nt,2641,-16
COc1ccc2oc(C(=O)NCC(Cc3ccccc3)N(C)C)c(C)c2c1 (stereo not drawn),5,1.6,0,4,0,4164,-14
CC1CN(C(=O)c2cc(-c3ccc(Cl)s3)nc3ccccc23)CC(C)O1 (stereo not drawn),0,1.7,5,1,-6,?,-20
CC1CCC(NC(=O)C2CC(O)CN2S(=O)(=O)c2ccc([N+](=O)[O-])cc2)CC1 (stereo not drawn),nt,12,3,-5,4,3953,-5
CC(C)C(C)(C#N)NC(=O)CSc1nc(C2CCCCC2)n(-c2ccccc2)n1 (stereo not drawn),-12,2.4,-3,5,5,2368,-4
Nc1ncnc2c1ncn2[C@@H]1O[C@H](CNCc2ccccc2OC2OC(CO)C(O)C(O)C2O)[C@@H](O)[C@H]1O (stereo partly drawn),nt,-1.7,2,-6,6,3799,-22
CCN1CCN(C(=S)c2ccc(-c3ccccc3)cc2)CC1,10,0.9,6,4,3,1929,-5
O=C(O)C1Cc2ccccc2CN1C(=O)c1ccco1 (stereo not drawn),0,2.2,2,5,3,5830,-31
Cc1c(C(=O)c2ccc(Cl)cc2Cl)cnc2cc3c(cc12)OCO3,-15,-1.2,-30,7,4,4264,-26
O=C(CCNC(=O)c1ccc(Cl)cc1)NCC(c1ccco1)N1CCCC1 (stereo not drawn),nt,1.0,2,1,-2,6965,-17
COc1cc([C@H]2Oc3c(OC)cc(CCCO[C@@H]4O[C@H](CO)[C@@H](O)[C@H](O)[C@H]4O)cc3[C@@H]2CO)ccc1O,nt,7.6,-7,nt,nt,5217,-37
O=C(OCc1cccc(Cl)c1)c1cc(S(=O)(=O)N2CCCCC2)ccc1N1CCOCC1,12,-4.3,-19,6,14,5711,-5

Later entries:
SMILES,BJeLR lethal,RN4220 kill,Sa ugtP lethal,Mtb hypoxia rep,Mtb hypoxia rep growth,Autofluor counter,PrP UTR inh
COc1ccc(C=NN2C(=O)CSC2=S)cc1,nt,3.2,8,nt,nt,nt,nt
Cc1ccccc1C(=O)N1CCN(c2ncccn2)CC1,7,0.3,5,16,5,3969,-35
C=CCNC(=S)NCc1ccccc1OC,-5,2.0,9,17,5,5954,-12
CN(Cc1cccs1)C(=O)c1cccc(S(=O)(=O)N2CCCCCC2)c1,nt,5.4,9,1,0,3682,-8
O=C1CNc2ccc(C(=O)N3CCN(c4ccccn4)CC3)cc2N1,-8,1.9,6,14,0,6091,-15
CCN(CC)S(=O)(=O)c1cc(NC(=O)CNc2cccc(S(=O)(=O)N3CCOCC3)c2)ccc1C,17,4.2,1,-2,-4,nt,-1
CCn1c(=O)c2cc(C(=O)Nc3ccccc3OC)sc2c2ccccc21,11,11,-11,9,4,3233,-11
CCC(=O)Nc1cccc(C2=NOC3(C2)C[C@@H](C(N)=O)N(C(=O)c2cc([N+](=O)[O-])cc([N+](=O)[O-])c2)C3)c1 (stereo partly drawn),6,nt,nt,nt,nt,3857,-12
S=C(Nc1ccccc1)N1CCc2ccccc21,-9,4.8,12,4,-1,4262,-22
COc1ccc2[nH]c(=O)c(C(=O)O)cc2c1,-1,3.2,6,10,5,3753,-25
CCOc1cc(S(=O)(=O)n2ccnc2)ccc1Cl,-2,3.2,5,11,2,3478,-24
CC(=O)c1ccc(N(C)C)cc1,-6,-6.0,-2,16,7,2965,-13
Cc1c(C(=O)Cc2ccccc2)n(C)c2ccccc12,-8,-0.5,3,5,8,4593,-23

Compounds as they come (roughly 4% active in at least one column).
